A1 apoptosis 2: A1 inhibition read as caspase activation; MEF A1-2A-BIM cells, caspase-Glo luminescence, 3 h; percent of clofoctol response, DMSO zero; caspase activation, % (concentration not given with the values); 24,000 tested, under 10 active; in the data active = caspase activation above about 5.9%;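 note: wells of about 30 µL received 50 nL stock; the first replicate is given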
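Material: mouse embryonic fibroblasts co-expressing A1 and BIM (A1-2A-BIM), primed for A1 dependence / Quantity: 2500 cells/well / Buffer or medium: RPMI-1640 growth medium with 10% FBS / Doses: 50 nL compound per well, pinned / Schedule: 3 h compound exposure at 37 °C / Signal: Caspase-Glo luminescence (DEVD substrate) / Measure: Caspase-3/7 activation, seen as rise in luminescence signal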
* hit, by the source's call.

Cc1noc(C)c1NC(=O)N(C)C[C@H]1OCCCC[C@H](C)Oc2ccc(NC(=O)NC(C)C)cc2C(=O)N([C@@H](C)CO)C[C@H]1C
  A1 apoptosis 2 = -0.7

C[C@H](CO)N1C[C@H](C)[C@@H](CN(C)Cc2ccc(C(F)(F)F)cc2)Oc2ccc(NC(=O)CCCCCC(=O)Nc3ccccc3N)cc2C1=O
  A1 apoptosis 2 = 0.3

O=C1O[C@H](c2ccccc2)[C@H](c2ccccc2)N2[C@H]1[C@@H](C(=O)NC[C@H](O)c1ccccc1)[C@]1(C(=O)Nc3ccccc31)[C@H]2c1ccc(O)cc1
  A1 apoptosis 2 = -0.1

C[C@@H]1CCCCO[C@@H](CN(C)S(=O)(=O)c2ccc(F)cc2)[C@@H](C)CN([C@H](C)CO)C(=O)c2cc(NC(=O)NC3CCCCC3)ccc2O1
  A1 apoptosis 2 = 0.6

COc1ccc(CN(C)C[C@H]2Oc3ccc(NS(=O)(=O)c4ccc(OC)cc4)cc3CC(=O)N([C@@H](C)CO)C[C@@H]2C)cc1
  A1 apoptosis 2 = 0.0

C#CCNC(=O)C1=C[C@@H](c2ccc(Br)cc2)C[C@@H](OCc2ccc(CO)cc2)O1
  A1 apoptosis 2 = -0.2

C[C@@H]1CN([C@H](C)CO)C(=O)Cc2cc(NS(=O)(=O)c3ccc(Cl)cc3)ccc2O[C@@H]1CN(C)C
  A1 apoptosis 2 = -0.5

Cc1ccc(OC(=O)N(C)C[C@@H]2OCc3cn(nn3)CCCC(=O)N([C@H](C)CO)C[C@@H]2C)cc1
  A1 apoptosis 2 = 0.0

Cc1noc(C)c1S(=O)(=O)Nc1ccc2c(c1)CC(=O)N([C@H](C)CO)C[C@H](C)[C@H](CN(C)Cc1ccc(-c3ccccc3)cc1)O2
  A1 apoptosis 2 = 0.1

C[C@@H]1CN([C@H](C)CO)C(=O)c2cc(NS(=O)(=O)c3cn(C)cn3)ccc2O[C@@H](C)CCCCO[C@@H]1CN(C)Cc1ccc(C(F)(F)F)cc1
  A1 apoptosis 2 = -2.3

By substructure: those above with a CF3 group
C[C@H](CO)N1C[C@H](C)[C@@H](CN(C)Cc2ccc(C(F)(F)F)cc2)Oc2ccc(NC(=O)CCCCCC(=O)Nc3ccccc3N)cc2C1=O
  A1 apoptosis 2 = 0.3

C[C@@H]1CN([C@H](C)CO)C(=O)c2cc(NS(=O)(=O)c3cn(C)cn3)ccc2O[C@@H](C)CCCCO[C@@H]1CN(C)Cc1ccc(C(F)(F)F)cc1
  A1 apoptosis 2 = -2.3

Next part:
C[C@@H]1CN([C@H](C)CO)C(=O)c2cccc(NS(=O)(=O)c3ccc(Cl)cc3)c2O[C@H]1CN(C)Cc1ccncc1
  A1 apoptosis 2 = -0.2

CC(C)NC(=O)Nc1ccc2c(c1)CC(=O)N([C@@H](C)CO)C[C@H](C)[C@@H](CN(C)Cc1ccccc1)O2
  A1 apoptosis 2 = -0.2

Cc1noc(C)c1S(=O)(=O)N(C)C[C@@H]1OCCCC[C@H](C)Oc2ccc(NC(=O)CCCN(C)C)cc2C(=O)N([C@H](C)CO)C[C@H]1C
  A1 apoptosis 2 = -1.0

COc1ccc(S(=O)(=O)Nc2ccc3c(c2)C(=O)N([C@@H](C)CO)C[C@@H](C)[C@H](CN(C)S(=O)(=O)c2ccc(F)cc2)OCCCC[C@@H](C)O3)cc1
  A1 apoptosis 2 = 0.7

Cc1noc(C)c1S(=O)(=O)N(C)C[C@H]1Oc2ccc(NC(=O)CCC(F)(F)F)cc2CC(=O)N([C@H](C)CO)C[C@@H]1C
  A1 apoptosis 2 = -0.2

C[C@@H]1CN([C@@H](C)CO)C(=O)Cc2cc(N(C)C)ccc2O[C@H]1CN(C)S(=O)(=O)c1ccccc1
  A1 apoptosis 2 = 1.1

C[C@@H]1CCCCO[C@@H](CN(C)Cc2ccc(C(F)(F)F)cc2)[C@@H](C)CN([C@H](C)CO)C(=O)c2cc(NC(=O)CCC(F)(F)F)ccc2O1
  A1 apoptosis 2 = -1.7

C[C@@H]1CN([C@H](C)CO)C(=O)c2cc(NS(=O)(=O)c3cccs3)ccc2O[C@H]1CN(C)Cc1ccc(C(F)(F)F)cc1
  A1 apoptosis 2 = 0.5

C[C@H]1CN([C@@H](C)CO)C(=O)c2cc(N(C)C)ccc2O[C@@H]1CN(C)Cc1ccccc1
  A1 apoptosis 2 = -1.2

C[C@@H]1CCCCO[C@H](CN(C)C(=O)Nc2ccccc2)[C@H](C)CN([C@H](C)CO)C(=O)c2cc(NC(=O)Nc3ccccc3)ccc2O1
  A1 apoptosis 2 = -0.2

Cc1noc(C)c1NC(=O)N(C)C[C@H]1Oc2ccc(NC(=O)Nc3ccc(F)cc3)cc2C(=O)N([C@@H](C)CO)C[C@@H]1C
  A1 apoptosis 2 = -1.1

C[C@H](CO)N1C[C@H](C)[C@H](CN(C)S(=O)(=O)c2ccc(F)cc2)Oc2c(NC(=O)c3ccc(-c4nccs4)cc3)cccc2C1=O
  A1 apoptosis 2 = -0.8

COc1ccc(S(=O)(=O)Nc2cccc3c2O[C@H](CN(C)Cc2ccc(C(F)(F)F)cc2)[C@@H](C)CN([C@@H](C)CO)C3=O)cc1
  A1 apoptosis 2 = -0.6

O=C(O)CCCCCCC(=O)N/N=C/c1ccc([N+](=O)[O-])s1
  A1 apoptosis 2 = -1.8

C[C@@H]1CN([C@@H](C)CO)C(=O)Cc2cc(NC(=O)c3ccncc3)ccc2O[C@@H]1CN(C)C(=O)Nc1cccc2ccccc12
  A1 apoptosis 2 = -0.3

C[C@@H]1CN([C@H](C)CO)C(=O)Cc2cc(NC(=O)C3CCCCC3)ccc2O[C@@H]1CN(C)Cc1ccc(-c2ccccc2)cc1
  A1 apoptosis 2 = 2.4

C[C@@H]1CN([C@H](C)CO)C(=O)c2cccc(NC(=O)C3CCCCC3)c2O[C@@H]1CN(C)C(=O)NC1CCCCC1
  A1 apoptosis 2 = 0.4

CC(C)NC(=O)Nc1ccc2c(c1)CC(=O)N([C@@H](C)CO)C[C@H](C)[C@H](CN(C)S(=O)(=O)c1cccs1)O2
  A1 apoptosis 2 = -0.7

CNC[C@H]1OCCCC[C@@H](C)Oc2ccc(N)cc2C(=O)N([C@H](C)CO)C[C@H]1C
  A1 apoptosis 2 = -0.2

O=C(N/N=C/c1cc(Cl)cc(Cl)c1O)c1ccccc1O
  A1 apoptosis 2 = -10.0

Going on with the list:
Structure	A1 apoptosis 2
C[C@@H]1CCCCO[C@H](CN(C)CC2CCCCC2)[C@H](C)CN([C@@H](C)CO)C(=O)c2cc(NS(=O)(=O)c3ccccc3)ccc2O1	-1.2
C[C@H](CO)N1C[C@H](C)[C@H](CN(C)C)OCCCC[C@H](C)Oc2ccc(NC(=O)c3ccccc3)cc2C1=O	-1.3
C[C@H](CO)N1C[C@H](C)[C@@H](CN(C)S(=O)(=O)c2cn(C)cn2)Oc2ccc(NS(=O)(=O)c3cccs3)cc2C1=O	-1.3
COc1ccc(NC(=O)O[C@@H](c2ccc(OC)c(O)c2)[C@H](CCO)OC)cc1	0.5
C[C@@H]1CCCCO[C@@H](CN(C)C(=O)Nc2ccccc2)[C@H](C)CN([C@@H](C)CO)C(=O)c2cc(NC(=O)Nc3ccccc3)ccc2O1	0.4
COc1ccc(S(=O)(=O)N(C)C[C@@H]2Oc3ccc(NS(C)(=O)=O)cc3CC(=O)N([C@@H](C)CO)C[C@H]2C)cc1	-1.0
C[C@@H]1CCCCO[C@@H](CN(C)C(=O)c2ccccc2)[C@@H](C)CN([C@H](C)CO)C(=O)c2cc(NS(=O)(=O)c3cccs3)ccc2O1	0.2
COc1ccc(S(=O)(=O)N(C)C[C@H]2OCCCC[C@H](C)Oc3ccc(NC(=O)Cc4ccccc4)cc3C(=O)N([C@@H](C)CO)C[C@H]2C)cc1	-0.7
C[C@H](CO)N1C[C@H](C)[C@H](CN(C)S(=O)(=O)c2cccs2)Oc2c(NC(=O)c3nc4ccccc4s3)cccc2C1=O	0.3
COc1ccc(NC(=O)Nc2cccc3c2O[C@H](CN(C)Cc2ccc(C(=O)O)cc2)[C@@H](C)CN([C@H](C)CO)C3=O)cc1	-0.5
CC(C)NC(=O)N(C)C[C@H]1Oc2c(NC(=O)C3CC3)cccc2C(=O)N([C@H](C)CO)C[C@@H]1C	0.1
CC(C)NC(=O)Nc1ccc2c(c1)C(=O)N([C@H](C)CO)C[C@H](C)[C@H](CN(C)C(=O)NC1CCCCC1)O2	-1.3
O=C(O)CCCCCCC(=O)N/N=C/c1ccoc1	-0.9
C[C@@H]1CCCCO[C@@H](CN(C)S(=O)(=O)c2ccccc2)[C@H](C)CN([C@H](C)CO)C(=O)c2cc(NC(=O)CCC(F)(F)F)ccc2O1	-0.3
COc1ccc(NC(=O)Nc2ccc3c(c2)C(=O)N([C@@H](C)CO)C[C@@H](C)[C@H](CN(C)S(=O)(=O)c2ccccc2)OCCCC[C@H](C)O3)cc1	0.8
C[C@@H]1CN([C@@H](C)CO)C(=O)CCCn2nncc2CO[C@@H]1CN(C)C(=O)c1ccc(N2CCN(C)CC2)cc1	0.5
C[C@@H]1CN([C@@H](C)CO)C(=O)c2cc(NC(=O)Nc3ccc(F)cc3)ccc2O[C@H]1CN(C)Cc1ccc2c(c1)OCO2	0.6
C[C@H](CO)N1C[C@H](C)[C@@H](CN(C)CC2CCCCC2)Oc2ccc(NC(=O)c3ccncc3)cc2CC1=O	-0.4
C[C@H](CO)N1C[C@H](C)[C@@H](CN(C)Cc2ccncc2)Oc2c(NC(=O)c3ccc(-c4nccs4)cc3)cccc2C1=O	0.0
C[C@H](CO)N1C[C@H](C)[C@H](CN(C)S(=O)(=O)c2ccccc2)Oc2ccc(NC(=O)Nc3ccccc3)cc2C1=O	1.0
C[C@@H]1CN([C@@H](C)CO)C(=O)c2cc(N(C)C)ccc2O[C@@H](C)CCCCO[C@@H]1CN(C)C(=O)Nc1ccc(C(F)(F)F)cc1	-0.1
C[C@H](CO)N1C[C@H](C)[C@@H](CN(C)Cc2ccc(Oc3ccccc3)cc2)Oc2c(NC(=O)C3CC3)cccc2C1=O	-1.3
C[C@@H]1CN([C@@H](C)CO)C(=O)c2cc(NC(=O)C3CC3)ccc2O[C@@H]1CN(C)Cc1ccccc1	2.5
COc1ccc(NC(=O)Nc2ccc3c(c2)C(=O)N([C@H](C)CO)C[C@H](C)[C@H](CN(C)S(=O)(=O)c2cccs2)OCCCC[C@H](C)O3)cc1	-0.4

Six successive entries already listed:
Structure	A1 apoptosis 2
Cc1noc(C)c1NC(=O)N(C)C[C@H]1OCCCC[C@H](C)Oc2ccc(NC(=O)NC(C)C)cc2C(=O)N([C@@H](C)CO)C[C@H]1C	-0.7
C[C@H](CO)N1C[C@H](C)[C@@H](CN(C)Cc2ccc(C(F)(F)F)cc2)Oc2ccc(NC(=O)CCCCCC(=O)Nc3ccccc3N)cc2C1=O	0.3
O=C1O[C@H](c2ccccc2)[C@H](c2ccccc2)N2[C@H]1[C@@H](C(=O)NC[C@H](O)c1ccccc1)[C@]1(C(=O)Nc3ccccc31)[C@H]2c1ccc(O)cc1	-0.1
C[C@@H]1CCCCO[C@@H](CN(C)S(=O)(=O)c2ccc(F)cc2)[C@@H](C)CN([C@H](C)CO)C(=O)c2cc(NC(=O)NC3CCCCC3)ccc2O1	0.6
COc1ccc(CN(C)C[C@H]2Oc3ccc(NS(=O)(=O)c4ccc(OC)cc4)cc3CC(=O)N([C@@H](C)CO)C[C@@H]2C)cc1	0.0
C#CCNC(=O)C1=C[C@@H](c2ccc(Br)cc2)C[C@@H](OCc2ccc(CO)cc2)O1	-0.2

Next part
Structure	A1 apoptosis 2
C[C@@H]1CN([C@H](C)CO)C(=O)c2cccc(NS(=O)(=O)c3ccc(F)cc3)c2O[C@H]1CN(C)CC1CC1	0.5
C[C@H]1CN([C@@H](C)CO)C(=O)c2cccc(NS(=O)(=O)c3cn(C)cn3)c2O[C@H]1CN(C)C	0.1
Cc1noc(C)c1NC(=O)Nc1ccc2c(c1)CC(=O)N([C@@H](C)CO)C[C@@H](C)[C@H](CN(C)S(=O)(=O)c1c(C)noc1C)O2	0.2
C[C@@H]1CCCCO[C@H](CN(C)C(=O)Cc2ccccc2)[C@H](C)CN([C@@H](C)CO)C(=O)c2cc(NC(=O)Nc3ccc4c(c3)OCO4)ccc2O1	0.2
C[C@@H]1CN([C@@H](C)CO)C(=O)Cc2cc(NC(=O)CCC(F)(F)F)ccc2O[C@H]1CN(C)Cc1ccc(-c2ccccc2)cc1	1.5
C[C@H]1CN([C@@H](C)CO)C(=O)c2cc(NC(=O)c3ccncc3)ccc2O[C@@H]1CN(C)C(=O)Nc1cccc2ccccc12	0.2
CCCN(C)C[C@H]1OCCCC[C@@H](C)Oc2ccc(NC(=O)CCCN(C)C)cc2C(=O)N([C@H](C)CO)C[C@@H]1C	-1.1
CC(C)NC(=O)Nc1ccc2c(c1)C(=O)N([C@@H](C)CO)C[C@@H](C)[C@@H](CN(C)CC1CCCCC1)O2	0.3
CCOC(=O)N(C)C[C@H]1OCc2cn(nn2)CCCC(=O)N([C@H](C)CO)C[C@@H]1C	-0.6

This is a subset; count on the stated rates, not on these rows.
